TRPML1 blocker = human mucolipin-1 channel inhibition. Q9GZU1. TRPML1-inducible cells, Ca2+ dye fluorescence, FDSS; stronger effect = lower value; inhibition of EC80 agonist-evoked calcium signal. activity change, negative = inhibition, % (test concentration not listed). 390,000 tested, 0.02% active. AID 624415; in the data active means activity change below about -50%; inconclusive means about -30% to -50%; inactive means above about -30%;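 note: stimulus is agonist 54-4 at its EC80 concentration; % is set by controls: 0 for no effect and ±100 for the full control effect; compound concentration not given in the record; the text of the record puts the active cut at -80%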
Target sequence (Q9GZU1 whole entry, looked up): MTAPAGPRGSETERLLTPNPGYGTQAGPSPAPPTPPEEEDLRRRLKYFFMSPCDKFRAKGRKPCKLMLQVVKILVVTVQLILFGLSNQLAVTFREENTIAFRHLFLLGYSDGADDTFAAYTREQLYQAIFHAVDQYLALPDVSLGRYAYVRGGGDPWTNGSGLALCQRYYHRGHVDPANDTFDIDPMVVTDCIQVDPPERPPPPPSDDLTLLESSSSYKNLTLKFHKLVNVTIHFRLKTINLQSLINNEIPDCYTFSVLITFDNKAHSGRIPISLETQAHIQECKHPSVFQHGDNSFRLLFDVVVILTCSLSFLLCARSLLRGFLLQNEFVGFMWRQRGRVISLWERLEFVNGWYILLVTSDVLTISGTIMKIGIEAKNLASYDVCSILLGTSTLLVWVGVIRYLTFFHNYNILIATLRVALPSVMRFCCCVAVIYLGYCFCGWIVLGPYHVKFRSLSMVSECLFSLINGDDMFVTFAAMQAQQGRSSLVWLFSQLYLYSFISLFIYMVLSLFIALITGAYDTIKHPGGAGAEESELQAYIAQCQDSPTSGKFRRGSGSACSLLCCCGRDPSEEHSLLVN
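Calcium fluorescence in TRPML1-DL cells induced overnight with Tet: a 110 s read after compound pin addition, then a 110 s antagonist read after challenge with 54-4 at 4 uM final (EC80).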
TRPML1 agonist = activates the human TRPML1 channel; 410,000 tested, 0.12% active; activation, % (no concentration beside the values); TRPML1-expressing cells, Ca2+ dye fluorescence, FDSS; host cell line not named in the record; reference of the full effect not given here; Q9GZU1; in the data active = activation above about 50%; inconclusive = about 30% to 50%; inactive = below about 30%; note: 0% is about no effect; the text of the record puts the active cut at 80%
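Calcium fluorescence on an FDSS kinetic reader gave the read-out. Tet-induced TRPML1-DL cells were plated overnight, dye-loaded (Ca8 with quencher, 45-90 min, room temperature, dark), then read 110 s after compound addition, and again 110 s after 4uM final 54-4 (EC80).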
Six1-Eya2 blk = Six1/Eya2 interaction inhibition. Q15475+O00167. AlphaScreen GST-Six1/His-Eya2 binding, biochemical; stronger effect = lower value; control for the full effect not named in the record. activity change, % (test concentration not listed). 360,000 tested, 0.56% active. AID 651725; in the data active = activity change below about -65%; inconclusive = about -30% to -65%; inactive = above about -30%; note: % is set by controls: 0 for no effect and ±100 for the full control effect; compound concentration not given in the record
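AlphaScreen luminescence read after one hour at 37 °C in darkness. Pin-transferred compounds met GST-Six1 and His-Eya2 protein (5X stock 250 nM/500 nM) plus glutathione donor and Ni-chelate acceptor beads (5X, 50 ug/mL).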
PINK1 modulator = PINK1 expression modulation; 410,000 tested, 0.2% active; Potency, µM (series often up to 76.6 µM), for the others: top-dose activation (PINK1 increase), actives largely listed as activators; PINK1 immunofluorescence, high-content cytometry, 24 h; active = well fitted activation curve with a large enough effect; inconclusive = small, poorly fitted or top-dose-only effect; inactive = flat fitted curve, though single readings scatter; cell line not stated here;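 note: potency is the fitted concentration of half-maximal effect; % of control where 0% means no effect; nearly all actives have a fitted effect of over 65% in size; a mitochondrial uncoupler was the plate control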
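Readout is PINK1 immunofluorescence, quantified alongside mitochondrial, cell and nuclear markers by laser-scanning microplate cytometry. Cells from a stable line were exposed to compound titrations (5 concentrations) for 24 hours, with CCCP controls.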
CtBP-E1A blk = blocks the CtBP interaction with E1A. 340,000 tested, 0.49% active. AlphaScreen GST-E1A/His-CtBP binding, 1536-well; stronger effect = lower value; control for the full effect not named in the record. activity change, % (no concentration beside the values). AID 651724; in the data active means activity change below about -65%; inconclusive means about -30% to -65%; inactive means above about -30%; note: % is set by controls: 0 for no effect and ±100 for the full control effect; compound concentration not given in the record
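GST-E1A and His-tagged CtBP (125 nM each as 5X stock) were preincubated with pin-transferred compound for 2 h at 37 °C in the dark, then glutathione donor and nickel acceptor beads were added for 1 h before AlphaScreen reading.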
D2 agonist = agonists of human D2 dopamine receptor (beta-arrestin); P14416; AID 624465; 360,000 tested, 0.084% active; activation, % (test concentration not listed); DiscoveRx PathHunter D2 beta-arrestin, luminescence, 90 min; 100% = 57 uM dopamine signal; in the data active = activation above about 40%; inconclusive = about 15% to 40%; inactive = below about 15%; note: compound concentration not given in the record; the text of the record calls up to 30% inactive
Target sequence (P14416 whole entry, looked up): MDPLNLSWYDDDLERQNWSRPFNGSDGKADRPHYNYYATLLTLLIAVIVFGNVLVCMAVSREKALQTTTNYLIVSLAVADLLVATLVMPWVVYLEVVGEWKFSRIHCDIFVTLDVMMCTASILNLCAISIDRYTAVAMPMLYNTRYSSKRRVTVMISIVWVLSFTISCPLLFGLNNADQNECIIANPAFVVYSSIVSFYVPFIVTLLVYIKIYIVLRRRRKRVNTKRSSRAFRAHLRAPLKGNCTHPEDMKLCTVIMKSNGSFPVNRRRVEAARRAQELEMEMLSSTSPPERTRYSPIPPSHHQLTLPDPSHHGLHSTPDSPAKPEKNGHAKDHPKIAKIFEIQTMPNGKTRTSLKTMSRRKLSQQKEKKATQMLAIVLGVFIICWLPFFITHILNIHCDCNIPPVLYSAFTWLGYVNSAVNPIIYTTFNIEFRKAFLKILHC
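Agonist mode: compounds alone added to overnight-plated D2 PathHunter cells for 90 min at 37 C, with 57 uM final dopamine (EC100) defining full response. Beta-arrestin recruitment detected by chemiluminescent reagent, read after 1 h at ambient temperature.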
The depositor's hits bear a star; ? = inconclusive; · = no result given; [ ] = remark or other dose.

Sample of the layout (4 entries):
SMILES	TRPML1 blocker	TRPML1 agonist	Six1-Eya2 blk	PINK1 modulator	CtBP-E1A blk	D2 agonist
CC(C)NCc1cc(Br)ccc1OCc1ccccc1	17	-0.1	2	0.3%	·	-2.1
CCc1ccc(NC(=O)Cc2c(C(=O)O)n(C)c3ccccc23)cc1	-16	-0.1	-1	1.5%	5	0.3
Nc1nc2ccc(Cc3ccncc3)cc2s1	?	1.4	?	0.0%	?	3.1
CCOc1nc(NC(=O)NC(=O)c2ccccc2)nc(-c2ccccc2)n1	17	0.5	9	?	-10	-2.4

The listing (from the top)
SMILES	TRPML1 blocker	TRPML1 agonist	Six1-Eya2 blk	PINK1 modulator	CtBP-E1A blk	D2 agonist
CC(C)NCc1cc(Br)ccc1OCc1ccccc1	17	-0.1	2	0.3%	·	-2.1
CCc1ccc(NC(=O)Cc2c(C(=O)O)n(C)c3ccccc23)cc1	-16	-0.1	-1	1.5%	5	0.3
Nc1nc2ccc(Cc3ccncc3)cc2s1	?	1.4	?	0.0%	?	3.1
CCOc1nc(NC(=O)NC(=O)c2ccccc2)nc(-c2ccccc2)n1	17	0.5	9	?	-10	-2.4
CC(=O)Nc1ccc(Nc2nc(-c3sc(NC(C)=O)nc3C)cs2)cc1	-9	-0.4	-12	4.3%	-4	3.3
N#CC(C#N)=C1C=CC=CN1/C(=C\c1ccco1)C(=O)c1ccc(Cl)cc1	14	4.8	3	-2.6%	3	-6.1
CCOc1ccccc1NS(=O)(=O)c1ccc2[nH]c(=O)[nH]c2c1	-8	-0.3	9	4.7%	-14	-2.7
CCOc1cc(/C=N/NC(=O)CN(CCc2ccccc2)S(=O)(=O)c2ccc(NC(C)=O)cc2)ccc1O	-4	-0.4	-75*	-0.2%	0	6.3
Cc1cccc(C(=O)Nc2ccnc(-c3cccnc3)n2)c1	-3	0.1	0	1.8%	-5	-4.4
CN(c1cccc(NC(=O)CCSc2ccccc2)c1)S(C)(=O)=O	0	0.2	3	3.9%[38.3 µM]	6	-2.4
CCOC(=O)c1sc(C)c(C(=O)NC2CCCCC2)c1N	-27	-1.0	0	6.9%	8	-2.4
COc1ccccc1CC(=O)Nc1ccc(O)cc1C(=O)O	-6	-0.3	4	-3.3%	-5	-2.7
CC1(C)CC(=O)C=C(c2ccc(COC(=O)/C=C/c3ccccc3)cc2)C1=O	-2	0.6	-16	2.3%	-17	-8.8
COc1cccc(NC(=O)CN(C)C(=O)C23CC4CC(CC(Cl)(C4)C2)C3)c1	3	3.0	-1	1.1%	-4	0.8
CCOc1cc(C(=O)OCC(=O)c2cc(C)n(CC3CCCO3)c2C)ccc1OCC(=O)N1CCOCC1 (configuration not stated)	5	0.6	1	-0.4%	·	-1.0
COc1ccc(NC(=O)CSc2nnc(NC(=O)Nc3ccccc3)s2)c(OC)c1	23	-0.3	·	0.1%	·	·
CCOC(=O)c1[nH]c2ccccc2c1NC(=O)CC(C)(C)C	9	-0.5	1	4.1%	6	-4.2
CC(=O)Nc1cccc(C(=O)Nc2cccc(S(=O)(=O)NCc3ccco3)c2)c1	-5	-0.1	-14	-0.5%	-16	2.7
CC(C)(C)C(=O)Nc1c(C(=O)N2CCN(c3ccc(F)cc3)CC2)oc2ccccc12	-11	3.4	·	-3.4%	·	·
O=C(NC(Cc1ccccc1)C(=O)O)NC12CC3CC(CC(C3)C1)C2 (configuration not stated)	6	0.0	-3	2.5%	11	-3.2
CSC1=C(C#N)C(c2sccc2C)CC(=O)N1 (configuration not stated)	-15	1.3	-3	-2.6%	0	2.5
Cc1ccc(O)c(NC(=O)c2cc(-c3ccc(F)cc3)no2)c1	-4	-0.4	·	0.7%	·	·
O=c1c2c3c(sc2nc2sc(C4CC4)nn12)CCCC3	5	-0.6	-1	4.6%	-1	-0.5
COc1cc(C=NC2CCCCC2)ccc1O	-2	-0.2	0	0.2%	3	0.1
Cc1c(Cl)cccc1NC(=O)CNC(=O)CCCc1nc2ccccc2c(=O)[nH]1	3	-0.1	4	0.1%	-15	-1.9

Next section.
SMILES	TRPML1 blocker	TRPML1 agonist	Six1-Eya2 blk	PINK1 modulator	CtBP-E1A blk	D2 agonist
COc1cc(/C=N/Nc2ccccn2)ccc1O	33	-0.7	-8	-1.6%	-11	1.8
Cc1ccc(C)c(NC(=O)Nn2cnnc2)c1	-14	0.2	-15	0.6%	-10	6.9
CC1CCCC(C)N1C(=O)COC(=O)COc1ccc(C#N)cc1 (configuration not stated)	2	-0.3	-3	0.0%	-5	-3.5
CN1CCN(c2ccc(S(=O)(=O)Nc3ccccc3)cc2[N+](=O)[O-])CC1	17	0.0	-15	3.9%	-2	-4.8
Cn1c(SCC(=O)Nc2ccc(NC(=O)c3cccc(F)c3)cc2)nnc1-c1ccncc1	22	0.2	14	11%	5	0.2
CC1=Nn2c(nnc2-c2cc(-c3ccccc3)n[nH]2)SC1	30	1.0	3	2.0%	5	-4.2
CC(=O)c1cccc(N=Cc2c(O)c3ccccc3oc2=O)c1	10	-0.9	1	1.0%	13	-3.6
COCCNCCCCOc1ccc(C)cc1[N+](=O)[O-]	0	-0.2	16	-1.4%	-6	1.3
O=C(c1ccccc1)c1c[nH]c(C(=O)NCc2cccnc2)c1	0	5.4	-13	3.7%	-6	-3.1
CC(C)(C)c1nc2ccccc2c2nnc(SCC(=O)NCc3ccco3)n12	-9	1.7	-4	-0.6%[38.3 µM]	-12	-0.7
COc1cc(SC)ccc1C(=O)OCC(=O)NC1CCCC1	-5	0.1	3	2.9%	0	2.6
COc1cccc(CCNC(=O)CCc2nnc(Cc3cc(OC)ccc3OC)o2)c1	-4	0.6	-4	4.6%	0	-3.4
COC(=O)[C@H](CC(C)C)NC(=O)N1CCN(c2cccc(C(F)(F)F)c2)CC1	?	2.8	0	0.9%[38.3 µM]	2	-3.7
OCC[C@H]1C[C@@H](O)[C@H](O)[C@]2(CCCO2)O1	-3	-0.6	4	-0.8%	9	-3.0
CC(=O)C1=C(c2ccccc2)NC(=O)NC1c1ccccc1 (configuration not stated)	?	0.6	3	1.3%	5	-3.2
CN(C(=O)c1ccc(NC(=O)Cc2cccc(NC(=O)C3CCN(C(=O)c4ccccc4)CC3)c2)cc1)C1CC1	45	0.7	0	-0.8%	2	-2.1
CN1CCN(S(=O)(=O)Cc2ccccc2Cl)CC1	-1	0.2	1	1.0%	0	1.5
Cc1ccccc1N1CCN(C2CCCN(C(=O)CCN3CCCCC3=O)C2)CC1 (configuration not stated)	-14	0.3	4	1.0%	-13	5.9
Cc1ccc(C(=O)C[n+]2ccc(-c3nnc4n3CCC4)cc2)cc1	2	2.4	6	-1.3%	-19	4.5
COc1cc(NC(=O)c2nccnc2C(=O)O)cc(OC)c1	-9	-0.5	-10	0.3%	-2	-1.6
O=C(CSc1ccc(-c2ccco2)nn1)NCc1ccc2c(c1)OCO2	11	0.0	-13	-1.6%	-8	-3.3
Cc1ccc(-n2nc(C)c3nc(CCC(=O)Nc4cccc(C)c4C)c(=O)n(C)c32)cc1	-6	0.0	·	-1.0%	·	·
CN(C)c1ccc(/C=C2\N=C(c3ccc(Cl)c([N+](=O)[O-])c3)NC2=O)cc1	-16	6.1	-15	11%	-3	-14
COc1ccc(Cl)cc1-c1n[nH]c(=S)o1	1	1.0	16	-0.3%	-1	-0.3
COCCn1c(C)nnc1SCC(=O)NNC(=O)c1ccc(Br)cc1	3	-0.6	-1	-1.2%	6	-1.0

Printed as active in Six1-Eya2 blk (from the list above):
| SMILES | TRPML1 blocker | Six1-Eya2 blk | PINK1 modulator | CtBP-E1A blk | D2 agonist |
| --- | --- | --- | --- | --- | --- |
| CCOc1cc(/C=N/NC(=O)CN(CCc2ccccc2)S(=O)(=O)c2ccc(NC(C)=O)cc2)ccc1O | -4 | -75* | -0.2% | 0 | 6.3 |

Continuation:
SMILES	TRPML1 blocker	TRPML1 agonist	Six1-Eya2 blk	PINK1 modulator	CtBP-E1A blk	D2 agonist
Cc1n[nH]c(=S)n1/N=C/c1ccccc1OCc1ccc(Cl)cc1	-7	0.0	-9	?	-3	-3.5
CC1(C(=O)NS(=O)(=O)c2ccc(F)cc2F)CCN1C(=O)c1ccccc1CCc1ccccc1 (configuration not stated)	·	-0.4	-4	0.7%	4	-1.6
O=C(NNc1nc2ccccc2o1)c1ccccc1	1	0.5	-1	-0.2%	-11	-1.1
CCc1nnc(NC(=O)c2ccc(COc3ccccc3Cl)o2)s1	7	0.0	10	1.8%	3	-3.6
CC(C)C1Oc2ccccc2N(CC(=O)N(Cc2ccncc2)Cc2ccco2)C1=O (configuration not stated)	-22	0.2	-1	-0.9%	-5	-2.9
COc1ccc(OC)c(-n2cc3c(=O)n(C)c(=O)n(C)c3c2)c1	7	-0.3	-6	4.5%	-10	1.2
COc1ccc(C(=O)N2CCN(S(=O)(=O)c3ccc(Cl)cc3)CC2)cc1OC	13	-0.9	2	-4.1%	-3	2.7
Cc1ccc(C(=O)NCC(=O)OCCCn2c(=O)[nH]c3ccccc32)cc1C	-6	-0.3	-8	-1.1%	25	-1.1
COCCn1cnnc1SCC(=O)Nc1cccc(S(=O)(=O)N2CCCCC2)c1	-15	1.1	2	3.3%	5	-0.2
O=C(COc1ccc2ccccc2c1)N1CCN(C(=O)c2cccnc2)CC1	5	0.2	1	-1.1%	-3	-0.8
COc1cc(CN2CCN(c3ccccc3C)CC2)cc([N+](=O)[O-])c1O	-18	1.3	-6	1.8%	-5	-4.6
COC(=O)c1c(-c2ccccc2)oc2c1C(OCCO)CCC2 (configuration not stated)	·	-0.9	-6	-0.8%	0	·
O=C(COC(=O)c1ccc(Br)o1)Nc1cccc(S(=O)(=O)N2CCCCCC2)c1	18	1.5	-5	1.9%	-3	0.6
CC(=O)C1=C(O)C(=O)N(c2ccc(Br)cn2)C1c1ccc(Br)cc1 (configuration not stated)	7	1.8	2	14%	·	2.9
CCN(CC)c1nc(NNC(=O)c2ccccc2)nc(N(CC)CC)n1	9	0.3	2	-1.4%	5	-2.9
CC(C)Oc1ccccc1-c1cc(C(=O)N/N=C/c2cccnc2)c2ccccc2n1	9	0.1	-22	4.2%	-6	-1.5
COc1ccc(NC(=O)C2CCCN2C(=O)NCc2ccccc2)cc1 (configuration not stated)	-9	0.9	1	-1.7%	-23	-1.1
Cc1ccc(SCC(=O)N2CCCC2)cc1	15	0.4	7	1.0%	-2	-1.6
CCCNC(=O)c1ccccc1NC(=O)c1nsc2ccccc12	-17	1.2	·	1.0%	·	·
COc1ccc(C(C(=O)NC2CCCCC2)N(C(=O)CCl)c2ccc(Cl)cc2)cc1 (configuration not stated)	20	1.6	-2	-2.1%	14	-3.6
COC(=O)c1ccc(CSc2nc3c(cnn3-c3ccccc3)c(=O)[nH]2)o1	-10	0.3	-6	·	9	1.4
COc1ccc(NC(=O)c2ccc(C(=O)c3cc(OC)ccc3OC)cc2)cc1	-8	-0.1	8	8.4%[38.3 µM]	10	-0.1
OC(CN1CCCCC1)CN(c1ccccc1)c1ccccc1 (configuration not stated)	84	0.8	-6	5.5%	-10	-2.9
Cc1ccc(N(NC(=O)C(C)(C)O)C(=O)c2ccccc2)cc1C	-6	-1.1	-1	1.5%	10	-2.0

Screening results: PubChem, National Center for Advancing Translational Sciences (NCATS)
